BJeLR viability: BJeLR cell viability reduction. viability loss activity score, % (concentration not given with the values). BJeLR fibroblasts viability, CellTiterGlo ATP luminescence, 48 h; HRASV12, hTERT and SV40 LT/ST transformed. actives 0.64% (n = 30,000). AID 2275; in the data active means viability loss activity score above about 50%; about a fifth of its hits are not listed in these tables;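 further: higher score means fewer live cells and less ATP luminescence; stock transfer was 50 or 100 nL into about 30 µL; 0% = vehicle wells and 100% = a reference killing control; one replicate is shown; the record names a cut of 85%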
A1 inhib: A1 inhibition; MEF A1-2A-BIM cells, caspase-Glo luminescence, 3 h; percent of clofoctol signal, DMSO as zero; caspase activation, % (concentration not given with the values); actives 0.51% (n = 21,000); AID 2241;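 active means most replicate scores above 10, or exactly half above 10 with mean activity above 10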;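 further: effector caspase 3 and 7 activity cleaving a DEVD luciferin substrate; 50 nL library stock added to about 30 µL; numbers are from one replicate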
* hit, by the source's call; . = no result given. Not all compounds are listed; count on the stated rates, not on these rows.

compound	A1 inhib	BJeLR viability
C[C@@H]1CN([C@H](C)CO)C(=O)c2cccc(NC(=O)c3nc4ccccc4s3)c2O[C@H]1CN(C)S(C)(=O)=O	.	-1.8
C[C@H]1CN([C@@H](C)CO)C(=O)c2cc(NC(=O)Nc3ccc4c(c3)OCO4)ccc2O[C@@H]1CN(C)S(=O)(=O)c1ccc(Cl)cc1	1.5	1.0
C[C@H]1CN([C@@H](C)CO)C(=O)c2cc(NS(=O)(=O)c3ccc(Cl)cc3)ccc2O[C@@H]1CN(C)Cc1ccccc1	0.4	-1.3
C[C@@H]1C[C@@H](O)C2[C@@](C)(CO)CCC[C@]2(C)[C@@]1(O)CCc1ccoc1 (stereo partly drawn)	0.7	1.5
C[C@H](CO)N1C[C@H](C)[C@H](CN(C)S(=O)(=O)c2cccs2)Oc2c(NS(=O)(=O)c3cn(C)cn3)cccc2C1=O	.	5.6
C[C@H](CO)N1C[C@H](C)[C@@H](CN(C)S(=O)(=O)c2ccc(F)cc2)Oc2ccc(NS(=O)(=O)c3ccccc3)cc2C1=O	0.5	-1.1
CC(C)NC(=O)Nc1cccc2c1O[C@H](CN(C)S(=O)(=O)c1ccc(Cl)cc1)[C@H](C)CN([C@@H](C)CO)C2=O	.	-4.2
Cc1onc(-c2ccccc2)c1CNC(=O)C1CCC1	0.7	-0.2
CCNS(=O)(=O)c1ccc2c(c1)C(=O)c1cc(S(=O)(=O)NCC)ccc1-2	-0.3	10.1
CCOC(=O)CC1Sc2ccccc2N=C1SCCS(=O)(=O)c1ccc(Cl)cc1 (stereo not drawn)	-1.0	0.4
CC(=O)Nc1nc(NC(C)=O)nc(-c2ccccn2)n1	1.1	-5.1
O=C1Oc2cc(O)cc(O)c2[C@@H](c2ccc(O)cc2)[C@H]1[C@H]1C(=O)Oc2cc(O)cc(O)c2[C@H]1c1ccc(O)cc1	0.0	-5.2
Cc1c(C(=O)Nc2ccc3ccccc3c2)oc2ccccc12	-5.5	3.7
CC1CCC2C(C)(C)[C@@H](O)CC[C@]2(C)C12Cc1c(O)cc3c(c1O2)CN(C(CCC(=O)O)C(=O)O)C3=O (stereo partly drawn)	0.0	0.5
COc1ccc(C(NC(=O)Cc2cc3ccccc3[nH]2)C(=O)Nc2ccc3c(c2)OCCO3)cc1 (stereo not drawn)	.	-4.2
C[C@@H]1CN([C@H](C)CO)C(=O)c2cccc(NS(C)(=O)=O)c2O[C@@H]1CN(C)C(=O)NC1CCCCC1	.	0.1
O=C1C[C@@H](c2ccc(O)cc2)Oc2cc(O)cc(O)c21	-2.6	8.2
O=C(Cn1c2ccccc2c2cn[nH]c(=O)c21)N1CCCCC1	0.3	4.3
Nc1nc(C23CC4CCC(CC(C4)C2)C3)cs1	.	1.9
Cc1noc(C)c1NC(=O)N(C)C[C@@H]1Oc2ccc(NC(=O)C3CC3)cc2C(=O)N([C@@H](C)CO)C[C@@H]1C	-0.6	2.2
CC1=CC(=O)OC1Cc1ccc2ccccc2n1 (stereo not drawn)	-0.7	-3.5
COc1ccc(CCN=C2SCC(=O)N2Cc2ccccc2)cc1OC	0.0	-1.4
C[C@@H]1CN([C@@H](C)CO)C(=O)c2cc(NS(C)(=O)=O)ccc2O[C@H]1CN(C)Cc1ccc(Oc2ccccc2)cc1	1.1	1.5
ClC(=Nc1ccccc1)c1ccccc1	-5.6	3.5
CC(=O)Nc1ccc(-n2c(C)nc(=O)c(-c3ccccc3)c2C)cc1	0.1	-11.3
Cc1ccc(-c2ccc(=O)n(CC(=O)NC3CCCC3)n2)cc1	0.5	-1.8
COc1ccc(S(=O)(=O)Nc2ccc3c(c2)C(=O)N([C@@H](C)CO)C[C@H](C)[C@@H](CN(C)Cc2ccccc2)O3)cc1	-0.6	2.7
COc1ccc(CN(C)C[C@@H]2Oc3ccc(NS(=O)(=O)c4c(C)noc4C)cc3C(=O)N([C@@H](C)CO)C[C@H]2C)cc1	0.5	-2.9
O=C(c1ccc2c(Cl)c3c(nc2c1)CCCC3)N1CCCCCC1	.	-2.5
C[C@H]1CN([C@@H](C)CO)C(=O)c2cccc(NS(=O)(=O)c3ccccc3)c2O[C@H]1CN(C)C(=O)NC1CCCCC1	.	4.4
C[C@H]1CN([C@@H](C)CO)C(=O)c2cc(NC(=O)C3CC3)ccc2O[C@H]1CN(C)S(=O)(=O)c1ccc(F)cc1	-0.5	1.8
C[C@]12CCC(=O)C=C1CCC1C2[C@@H](O)C[C@@]2(C)C1CC[C@]2(O)C(=O)COC(=O)CCC(=O)O (stereo partly drawn)	-0.3	-5.9
Cc1ccc(-c2nn(CCC(=O)Nc3cccc(C(F)(F)F)c3)c(=O)c3ccccc23)cc1	.	-4.2
COc1ccc(NC(=O)N(C)C[C@@H]2Oc3ccc(NS(=O)(=O)c4ccc(Cl)cc4)cc3C(=O)N([C@@H](C)CO)C[C@H]2C)cc1	0.4	-2.9
Cc1cc(C)c(CN(C)C)c(O)c1	-0.3	3.2
CC(C)NC(=O)Nc1cccc2c1O[C@@H](CN(C)S(=O)(=O)c1ccc(F)cc1)[C@@H](C)CN([C@@H](C)CO)C2=O	.	-1.4
CCc1ccc(N2NC(=O)/C(=C/c3ccc4c(c3)n(C)c(=O)n4C)C2=O)cc1	0.9	-0.3
COc1cc(C2OCC3C(c4cc(OC)c(OC)c(OC)c4)OCC23)cc(OC)c1OC (stereo not drawn)	0.1	1.7
COc1ccc([C@@]2(O)c3c(ccc(CC=C(C)C)c3O)NC(=O)[C@@H]2OC)cc1	0.2	-0.7
CNC[C@H]1Oc2c(NC(=O)C3CCOCC3)cccc2C(=O)N([C@H](C)CO)C[C@H]1C	.	-4.3
Fc1cc(F)cc(NC(=S)NCCN(C2CCCCC2)C2CCCC2)c1	-0.1	7.2
C[C@@H]1CN([C@@H](C)CO)C(=O)c2cc(NC(=O)NC3CCCCC3)ccc2O[C@@H]1CN(C)C	0.4	-0.9
CCOC(=O)C1C2C=CC3(CN(CC(C)C)C(=O)C13)O2 (stereo not drawn)	.	-6.1
C[C@@H]1CN([C@@H](C)CO)C(=O)c2cccc(NS(C)(=O)=O)c2O[C@@H]1CN(C)Cc1ccc(Oc2ccccc2)cc1	.	-1.1
O=C(c1ccco1)N1CCN(c2ncnc3nc[nH]c23)CC1	0.9	-4.6
Cc1noc(C)c1NC(=O)N(C)C[C@@H]1Oc2ccc(NC(=O)CCC(F)(F)F)cc2C(=O)N([C@H](C)CO)C[C@H]1C	0.5	-1.1
COc1ccc(CCCc2n[nH]c(=S)o2)cc1	-0.3	-8.7
O=C(O)c1ccc(CNCCc2ccccc2)s1	0.0	0.2
CC(=O)N(CCc1c(C)[nH]c2ccccc12)C(C(=O)Nc1c(C)cccc1C)c1ccc(Cl)cc1 (stereo not drawn)	1.1	-3.4
CSc1nsc(SC)c1C(=O)NC(=O)Nc1ccc(Cl)cc1	0.5	3.2
COc1ccc(CN(C)C[C@@H]2Oc3ccc(NC(=O)Nc4ccc(C(F)(F)F)cc4)cc3C(=O)N([C@@H](C)CO)C[C@@H]2C)cc1	-0.2	-0.6
COc1ccc(-c2cc(C(=O)OCC(=O)c3ccccc3)c3cccc(Cl)c3n2)cc1	0.5	-0.3
S=C1NC2(CCCC2)N=C1c1ccccc1	.	-2.1
CC(C)NC(=O)N(C)C[C@H]1Oc2c(NS(=O)(=O)c3ccccc3)cccc2C(=O)N([C@H](C)CO)C[C@H]1C	.	-6.0
C[C@H](CO)N1C[C@H](C)[C@H](CN(C)C(=O)Nc2ccc(C(F)(F)F)cc2)Oc2c(NS(=O)(=O)c3ccccc3)cccc2C1=O	.	3.1
CC(C)NC(=O)Nc1cccc2c1O[C@@H](CN(C)Cc1ccc(Cl)c(Cl)c1)[C@H](C)CN([C@H](C)CO)C2=O	.	-2.9
C[C@H](CO)N1C[C@H](C)[C@H](CN(C)Cc2ccc(C(F)(F)F)cc2)Oc2c(NS(=O)(=O)c3cccs3)cccc2C1=O	.	3.0
CCCC(CCC)c1nc2ccncc2[nH]1	-0.7	-6.5
CNC[C@H]1Oc2c(NC(=O)c3ccc(-c4nccs4)cc3)cccc2C(=O)N([C@H](C)CO)C[C@H]1C	.	1.7
O=C(/C=C/c1ccco1)N1CCN(C(c2ccccc2)c2ccccc2)CC1	0.0	-1.3

The list continues:
compound	A1 inhib	BJeLR viability
CNC[C@H]1Oc2c(NC(=O)c3cc(C)nn3C)cccc2C(=O)N([C@H](C)CO)C[C@H]1C	.	1.5
O=C(Nc1nc(-c2ccccc2)cs1)C12CC3CC(CC(C3)C1)C2	-0.5	9.0
Cc1noc(C)c1S(=O)(=O)Nc1ccc2c(c1)C(=O)N([C@H](C)CO)C[C@H](C)[C@@H](CN(C)C(=O)Nc1ccc(C(F)(F)F)cc1)O2	-0.1	-4.1
Cc1ccc(S(=O)(=O)Nc2ccc3c(c2)C(=O)N([C@@H](C)CO)C[C@H](C)[C@@H](CN(C)C(=O)Nc2ccccc2)O3)cc1	0.8	-0.6
Cc1ccc(SC(=O)c2sc(-c3ccccc3)nc2C)cc1	-0.1	-1.3
O=c1[nH]nc(SCc2ccc(Cl)cc2Cl)c(=O)[nH]1	1.2	1.1
CCc1ccccc1N(CC)C(=O)c1cc2c(s1)-c1c(C)cccc1OC2	-0.4	1.0
COC(=O)C1=C(N)C(C(=O)OC)=c2s/c(=C/c3ccccc3)c(=O)n2C1c1ccccc1 (stereo not drawn)	-0.8	-3.6
CCCc1cc2c(=O)c(-c3ccc4c(c3)OCCO4)c(C(F)(F)F)oc2c(C=[N+](C)C)c1O	0.4	-5.1
CCOC(=O)N1CCC(NS(=O)(=O)c2ccc(C)c(Cl)c2)CC1	0.8	6.2
COc1ccc(/C=c2/[nH]/c(=C\C(=O)c3ccccc3)c(=O)[nH]c2=O)cc1OC	7.5	4.4
Clc1cccc(/C=N/N2CCN(Cc3ccccc3)CC2)c1Cl	-0.4	1.8
COc1cc(-c2oc3cc(O)c(OC)c(O)c3c(=O)c2O[C@@H]2O[C@H](CO[C@@H]3O[C@H](CO)[C@@H](O)[C@H](O)[C@H]3O)[C@@H](O)[C@H](O)[C@H]2O[C@@H]2OCC(O)(CO)[C@H]2O)ccc1O (stereo partly drawn)	-1.0	7.4
O=C(c1ccccn1)c1ccc2ccccc2n1	-0.6	-4.9
CC1=C(c2ccc(C)cc2)[N+](=O)C(C)(C)N1[O-]	-0.7	-0.6
N#Cc1cccnc1N1CCN(C(=O)Nc2cccc3ccccc23)CC1	0.9	-1.7
Cc1oc2c(c1C(N)=O)CCCC2	0.9	-1.7
C[C@@H]1CN([C@H](C)CO)C(=O)c2cccc(NC(=O)C3CCCCC3)c2O[C@H]1CN(C)CC1CCCCC1	.	-13.7
C[C@@H]1CN([C@@H](C)CO)C(=O)c2cccc(NC(=O)Nc3ccc(F)cc3)c2O[C@H]1CN(C)CC1CC1	.	0.8
C[C@@H]1CN([C@H](C)CO)C(=O)c2cc(NC(=O)Cc3ccccc3)ccc2O[C@@H]1CN(C)C	-0.3	1.5
C=CCOc1nc(NCC)nc(N(C)C)n1	0.0	3.6
O=C1/C(=C/c2ccccc2O)N=C2CCCCCN12	-0.7	8.8
CC(Nc1cc(C)ccn1)=C(C#N)C#N	0.1	-1.9
C[C@@H]1CN([C@@H](C)CO)C(=O)c2cc(NC(=O)C3CC3)ccc2O[C@H]1CN(C)S(=O)(=O)c1cn(C)cn1	-0.2	-1.4
CC(C)(C)c1ccc2cc(C#N)c(C#N)cc2c1	-1.0	5.3
O=C(CS(=O)(=O)Nc1ccc(F)cc1Cl)Nc1ccc(F)cc1Cl	0.3	2.2
C[C@@H]1CN([C@@H](C)CO)C(=O)c2cccc(NC(=O)Nc3ccccc3)c2O[C@H]1CN(C)C(=O)Nc1cccc2ccccc12	.	-5.1
CC1CC(=O)c2c(ccc3c2C(=O)c2cccc(O)c2C3O)C1 (stereo not drawn)	-0.5	-13.4
C[C@@H]1CN([C@H](C)CO)C(=O)c2cccc(NC(=O)c3ccc(-c4nccs4)cc3)c2O[C@@H]1CN(C)Cc1ccc(C(F)(F)F)cc1	.	-0.9
Cc1cc(C(=O)NCc2ccc(F)cc2)n(-c2ccccc2)n1	-0.3	1.9
C[C@H]1CN([C@@H](C)CO)C(=O)c2cc(NS(=O)(=O)c3cccs3)ccc2O[C@H]1CN(C)S(=O)(=O)c1ccc(Cl)cc1	0.7	-2.8
COCCN1C(=O)c2ccccc2C(C(=O)NCCN2CCOCC2)C1c1cn(C)c2ccccc12 (stereo not drawn)	.	1.8

Fetched by compound from the list above (7):
compound	A1 inhib	BJeLR viability
C[C@@H]1CN([C@@H](C)CO)C(=O)c2cc(NC(=O)C3CC3)ccc2O[C@H]1CN(C)S(=O)(=O)c1cn(C)cn1	-0.2	-1.4
COC(=O)C1=C(N)C(C(=O)OC)=c2s/c(=C/c3ccccc3)c(=O)n2C1c1ccccc1 (stereo not drawn)	-0.8	-3.6
O=C(Nc1nc(-c2ccccc2)cs1)C12CC3CC(CC(C3)C1)C2	-0.5	9.0
Clc1cccc(/C=N/N2CCN(Cc3ccccc3)CC2)c1Cl	-0.4	1.8
O=C1/C(=C/c2ccccc2O)N=C2CCCCCN12	-0.7	8.8
O=c1[nH]nc(SCc2ccc(Cl)cc2Cl)c(=O)[nH]1	1.2	1.1
C[C@@H]1CN([C@@H](C)CO)C(=O)c2cccc(NC(=O)Nc3ccccc3)c2O[C@H]1CN(C)C(=O)Nc1cccc2ccccc12	.	-5.1

Source: PubChem BioAssay
